# HNF4A DNA FP = change in binding of human HNF4 alpha to DNA. HNF4a-FITC DNA binding, fluorescence polarization, 1 h. activity change, % at 10 µM. 360,000 tested, 0.3% active. AID 1224865; in the data active = activity change above about 30%, passing the limit was not always enough;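 note: controls were the assay level and a saturating level of protein; the project sought stronger binding though the title names inhibitors; some compounds called inactive have numbers as strong as hits; positive values seem to mean higher polarization but the record does not say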
# Target sequence (P41235 whole entry, looked up): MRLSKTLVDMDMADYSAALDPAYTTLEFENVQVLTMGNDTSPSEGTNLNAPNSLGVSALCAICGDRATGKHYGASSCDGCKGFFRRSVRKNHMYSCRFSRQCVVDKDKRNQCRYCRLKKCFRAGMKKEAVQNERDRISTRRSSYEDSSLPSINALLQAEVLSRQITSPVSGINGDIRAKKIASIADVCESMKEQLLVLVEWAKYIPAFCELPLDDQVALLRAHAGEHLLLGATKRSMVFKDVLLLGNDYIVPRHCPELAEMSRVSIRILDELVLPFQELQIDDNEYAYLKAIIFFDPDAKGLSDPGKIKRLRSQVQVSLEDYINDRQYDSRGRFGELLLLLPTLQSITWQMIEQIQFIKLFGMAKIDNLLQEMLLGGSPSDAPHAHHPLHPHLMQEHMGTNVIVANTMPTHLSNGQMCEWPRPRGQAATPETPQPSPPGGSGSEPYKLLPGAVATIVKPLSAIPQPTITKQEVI
# ALR H2O2 inh = blocks human ALR sulfhydryl oxidase activity. P55789. purified ALR, DTT oxidation, H2O2 HRP-luminol luminescence. inhibition, % (no concentration beside the values). 290,000 tested, 3.8% active. AID 485317;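 active = mean and each replicate at 75% or more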;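 note: stock transfer was 7.5 nL into about 7.5 µL; 0% = neutral wells and 100% = wells with inactivated enzyme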
# UCH37 inh = inhibitors of human deubiquitinating enzyme UCH37 | 330,000 tested, 0.33% active | inhibition, % (concentration not given with the values) | purified proteasome/UCH37, Ub-AMC cleavage fluorescence;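 active = mean of two replicates above 20%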;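 note: 0% = compound-free wells with enzyme and 100% = wells lacking proteasome; stock transfer was 100 nL into about 20 µL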
#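 system = Proteasome-associated human UCH37 deubiquitinase | amount = 0.15 nM proteasome as dispensed | medium = pH 7.4 Tris-HCl (50 mM) with ovalbumin, ATP-MgCl2, DTT | incubation = 30 min preincubation with enzyme, 25 min cleavage at room temperature | detection = AMC fluorescence 355/460 nm | read-out basis = percent inhibition | controls = no-proteasome and no-compound wells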
# E coli growth = E. coli growth inhibition. Escherichia coli growth, OD600, 23 h; stronger effect = lower value. OD600 absorbance (concentration not given with the values). 330,000 tested, 0.21% active;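 active = OD600 absorbance below the run mean of sample wells minus 3.6 SD, in any replicate, cut at about 0.56 in these data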;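 note: stock transfer was 300 nL into about 60 µL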
# FGF22 binding = FGF22 (human) thermal shift binding. 340,000 tested, 1.5% active. calls only at 9.99 µM. recombinant FGF22 thermal shift, SYPRO orange fluorescence; percent of sucrose octasulfate shift, DMSO zero. AID 651658. Q9HCT0;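 active = melting point raised past a set limit in the mean and every replicate; three in four hits are not shown here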
# Target sequence (Q9HCT0 whole entry, looked up): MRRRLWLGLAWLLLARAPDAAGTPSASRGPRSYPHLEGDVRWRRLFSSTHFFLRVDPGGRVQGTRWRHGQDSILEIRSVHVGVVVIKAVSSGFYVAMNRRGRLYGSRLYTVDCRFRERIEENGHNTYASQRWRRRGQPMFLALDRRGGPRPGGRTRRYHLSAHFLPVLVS
# B2AR ag = activates human beta-2 adrenergic receptor causing internalization; response, % (no concentration beside the values); 340,000 tested, 0.43% active; AID 504454; Am2.2-beta2AR cells, FAP receptor internalization, flow cytometry; reference of the scale not given here;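 active = response above a set limit, near 3 SD of response in nonfluorescent compounds, cut at about 42% in these data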;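 note: stock transfer was 100 nL into about 11 µL; a reference agonist was the positive control; negative values mostly stem from fluorescent compounds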
# Target sequence (P07550 whole entry, looked up): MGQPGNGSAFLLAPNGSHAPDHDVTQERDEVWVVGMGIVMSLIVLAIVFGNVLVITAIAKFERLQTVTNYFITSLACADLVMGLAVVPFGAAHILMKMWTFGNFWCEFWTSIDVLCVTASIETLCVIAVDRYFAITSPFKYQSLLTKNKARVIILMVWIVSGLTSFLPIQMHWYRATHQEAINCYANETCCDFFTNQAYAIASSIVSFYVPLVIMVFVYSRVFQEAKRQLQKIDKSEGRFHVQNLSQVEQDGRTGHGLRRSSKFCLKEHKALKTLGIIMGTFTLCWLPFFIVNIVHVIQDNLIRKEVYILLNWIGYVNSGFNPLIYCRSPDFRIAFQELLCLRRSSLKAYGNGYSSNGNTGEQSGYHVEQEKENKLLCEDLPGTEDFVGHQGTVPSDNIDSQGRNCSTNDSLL
# Ecoli rRNA inh = inhibits bacterial ribosomal RNA function over humanized ribosomes | E. coli WT GFP vs humanized-ribosome RFP mutants, fluorescence, 24 h; stronger effect = lower value; DMSO median 0, no signal -100 | GFP signal change (wild-type ribosome), % (test concentration not listed) | 350,000 tested, 1.6% active;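 active = significant combined selectivity score with lowered wild-type GFP, culture density cut under 30%, mutant RFP and density less affected; inactive = any of these conditions unmet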; note: one replicate is shown; some compounds called inactive have numbers as strong as hits
# Ecoli rRNA inh OD600 = further read-out of Ecoli rRNA inh, marked with its call; OD600 change, %; measured here: OD600 growth;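 optical density of the mix in the first replicate; 0 = DMSO median and -100 = no signal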
# Ecoli rRNA inh RFP = further read-out of Ecoli rRNA inh, marked with its call; RFP signal change, %; measured here: RFP humanized mutant strains;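 first replicate; 0 = DMSO median and -100 = no signal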
# Active calls of the source: *; i = inactive; . = no result given; & = joins results of further samples. The list is partial; rates above refer to the full screens.
SMILES,HNF4A DNA FP,ALR H2O2 inh,UCH37 inh,E coli growth,FGF22 binding,B2AR ag,Ecoli rRNA inh,Ecoli rRNA inh OD600,Ecoli rRNA inh RFP
CN(C)C1NC(=O)c2cc(-c3ccccc3)sc2N1 (configuration not stated),4.6,.,4.0,0.73,.,5,.,.,.
CCOn1c(=O)c(-c2cc3ccccc3o2)[n+]([O-])c2ccccc21,0.8,93*,-2.9,0.68,.,-1,.,.,.
O=C(Nc1cccn(Cc2c(Cl)cccc2Cl)c1=O)c1ccccc1Cl,-0.6,-19,3.7,0.73,.,21,-26,-24,-0.6
O=C(O)CCCCCCCCc1cn(CN2C(=O)c3ccccc3C2=O)nn1,3.9,-9,3.9,0.75,i,-3,3,14,-0.5
COc1cccc(-c2cc(NC(C)=O)c3ncc(-c4ccc(OC)c(OC)c4)n3c2)c1,12,.,.,.,i,.,-3,2,8.2
COc1cc(C(=O)O)ccc1O,-5.3,-3,0.8,.,i,-8,4,16,1.0
Nc1scc2c(C(=O)O)nn(-c3ccccc3)c(=O)c12,-1.1,-8,3.3,.,i,3,11,4,12
O=C1CN2NC(=S)N(c3ccccc3)C2=CN1c1ccc(Cl)cc1,0.9,-1,0.8,0.72,i,13,17,9,-5.5
COc1ccccc1-c1c(C)nn2c(N3CCC(C(N)=O)CC3)cc(C)nc12,-4.0,-2,6.7,0.71,i,-1,-1,1,-0.2
CCOC(=O)c1c(C)[nH]c(C)c1C(=O)COC(=O)/C=C/c1cccc(F)c1,3.5,-5,5.9,0.69,.,-7,.,.,.
COc1ccc(CNC(=O)COC(=O)CCCOc2ccc(Cl)cc2Cl)cc1,0.1,-4,0.8,0.62,.,6,.,.,.
O=C(CSc1ccc2ccccc2c1)Nc1ncccn1,6.8,74,0.0,0.68,.,-3,.,.,.
COc1c2ccoc2c(OC[C@@H](OC(C)=O)C(C)(C)O)c2oc(=O)ccc12,-3.4,-5,5.1,0.81,i,-15,4,1,11
O=C(/C=C/c1ccccc1)OCCCN=C1NS(=O)(=O)c2ccccc21,-2.2,-2,0.0,0.67,i,2,-26,-21,-1.2
COc1ccc(NC(=O)c2cccnc2)c([N+](=O)[O-])c1,4.7,-19,-0.2,0.66,i,-7,15,15,3.2
CCN(CC)C(CNC(=O)CSc1nnnn1-c1cccc(F)c1)c1ccco1 (configuration not stated),-1.9,-5,1.5,0.7,i,-6,.,.,.
C=CCOc1ccc(CN(C)CC(=O)Nc2ccc3c(c2)CCC3)cc1,0.1,-4,0.7,0.61,i,-7,-37,-53,-0.1
CCC(=O)Nc1ccccc1-c1nnn(CC(=O)N2c3ccccc3CC2C)n1 (configuration not stated),0.3,-2,1.6,0.69,i,-12,7,6,-6.4
N#CC1(NC(=O)CN2CCc3ccccc3C2)CCCC1,3.0,-22,5.2,0.68,i,2,22,4,1.6
COc1ccc(CNC(=O)Cn2nc(C(F)(F)F)c(Br)c2C)cc1,0.9,3,.,.,i,-6,5,8,-2.6
O=C1C2C(C(=O)N1/N=C/c1cc([N+](=O)[O-])ccc1O)C1C=CC2C12CC2 (configuration not stated),0.9,-2,.,.,i,-2,8,1,0.8
Cc1ccc(-c2nn(-c3ccccc3)cc2C(=O)N2CCN(c3ccccn3)CC2)cc1,-3.6,-11,-0.5,0.66,i,-20,-27,-31,-0.6
COc1ccc(OC)c(N(CC(=O)Nc2ccccc2)S(=O)(=O)c2ccccc2)c1,-0.8,1,2.4,0.71,i,-8,-15,-12,0.3
O=C(Cc1ccc2c(c1)CCCC2)Nc1ccc2ccccc2c1,-1.6,2,0.6,0.71,.,-2,.,.,.
Cc1ccc(-c2nnc(SCC(=O)NC(=O)Nc3ccc(C)cc3C)n2N)cc1,-1.5,.,3.1,0.67,.,6,.,.,.
CCCNC(=O)C1CCN(c2nc(C)cc(C)n2)CC1,-0.4,-3,-0.2,0.71,.,-3,.,.,.
CCc1nc2c(OCc3cccc(Cl)c3)cccn2c1N(C)C(=O)CC(C)C,2.0,.,.,.,i,.,-37,-55,-4.2
O=C(Cc1ccc(O)cc1)N/N=C/c1cccs1,2.3,48,.,.,i,-4,8,7,0.0
COc1ccc(S(=O)(=O)N2CCOCC2)cc1NC(=O)CCCOc1ccc(Cl)cc1C,-1.0,-25,2.8,0.71,i,0,-2,10,1.1
Cc1c(C(O)CN2CCN(Cc3ccc4c(c3)OCO4)CC2)c2ccccc2n1C (configuration not stated),0.1,2,1.1,0.71,i,12,1,6,8.6
COc1cc(C(=O)Nc2cc3c(cc2N2CCCCC2)n(C)c(=O)n3C)cc(OC)c1OC,4.1,.,3.1,0.71,i,15,-3,-6,-3.4
CC(C)(C)OC(=O)N[C@@H](COCc1ccccc1)C(=O)N[C@@H](CO)[C@H](O)[C@@H]1C[C@@H]1C(=O)NC1CC1,6.2,-4,4.3,.,i,3,11,1,2.5
COc1ccc(Cl)cc1NC(=O)CCNC(=O)OCc1ccccc1,-2.7,-7,2.6,0.7,.,-4,-19,-26,-4.5
Cc1oc(-c2ccccc2F)nc1CN1CCC(C(=O)NC2CCCCCCC2)CC1,-0.3,.,4.9,0.64,.,-6,.,.,.
CCOC(=O)c1ccc(NC(=O)CC2NCCNC2=O)cc1 (configuration not stated),1.4,-4,2.1,0.65,.,-5,.,.,.
O=C(COC(=O)c1cc(Br)ccc1O)NNC(=O)c1ccc([N+](=O)[O-])cc1,-2.1,.,2.3,0.65,i,-2,6,6,-2.7

# 6 entries picked at random from the list so far:
SMILES,HNF4A DNA FP,ALR H2O2 inh,UCH37 inh,E coli growth,FGF22 binding,B2AR ag,Ecoli rRNA inh,Ecoli rRNA inh OD600,Ecoli rRNA inh RFP
Cc1c(C(O)CN2CCN(Cc3ccc4c(c3)OCO4)CC2)c2ccccc2n1C (configuration not stated),0.1,2,1.1,0.71,i,12,1,6,8.6
CCOC(=O)c1ccc(NC(=O)CC2NCCNC2=O)cc1 (configuration not stated),1.4,-4,2.1,0.65,.,-5,.,.,.
O=C(Cc1ccc(O)cc1)N/N=C/c1cccs1,2.3,48,.,.,i,-4,8,7,0.0
O=C(COC(=O)c1cc(Br)ccc1O)NNC(=O)c1ccc([N+](=O)[O-])cc1,-2.1,.,2.3,0.65,i,-2,6,6,-2.7
CC(C)(C)OC(=O)N[C@@H](COCc1ccccc1)C(=O)N[C@@H](CO)[C@H](O)[C@@H]1C[C@@H]1C(=O)NC1CC1,6.2,-4,4.3,.,i,3,11,1,2.5
COc1ccc(S(=O)(=O)N2CCOCC2)cc1NC(=O)CCCOc1ccc(Cl)cc1C,-1.0,-25,2.8,0.71,i,0,-2,10,1.1

# The listing continues:
SMILES,HNF4A DNA FP,ALR H2O2 inh,UCH37 inh,E coli growth,FGF22 binding,B2AR ag,Ecoli rRNA inh,Ecoli rRNA inh OD600,Ecoli rRNA inh RFP
Cc1ccc2c(CN(C)Cc3ccccc3)cc(=O)oc2c1C,-1.8,.,1.8,0.65,i,0,-14,-21,-0.7
Cc1nnc(C)n1/N=C/c1ccc(C(=O)O)cc1,-0.1,-5,.,.,.,2,24,18,-1.6
COc1ccccc1N=Nc1nc(-c2ccccc2)c(-c2ccccc2)[nH]1,19,-7,6.9,0.73,i,19,-3,14,32
COc1cc(Cl)c(C)cc1NC(=O)CSc1cc(Cl)ccc1Cl,3.0,-4,-0.5,0.65,i,4,9,1,17
CCOC(=O)c1c(-c2ccccc2)oc2ccc(OCC(=O)NNC(=O)CCC(=O)O)cc12,-2.9,-4,-396,0.65,i,-14,-8,-4,2.1
COc1cc(C(O)P(=O)(OCC(C)C)OCC(C)C)cc(OC)c1OC (configuration not stated),-4.5,-4,2.2,0.69,.,11,.,.,.
COc1ccc(-c2nnc(SCC(=O)N(C)C3CCS(=O)(=O)C3)n2C(C)C)cc1 (configuration not stated),3.4,-3,2.0,0.7,i,2,10,6,-0.2
O=C(Cn1cc2c(n1)CCCCC2)NCc1cccs1,6.4,-11,1.8,0.67,.,0,10,8,0.0
COc1cc2c(C(=O)N3CCOCC3)c(CSc3ccccc3)n(C)c2cc1Br,-1.4,-13,0.0,0.68,i,18,-35,-52,-4.0
CCC(=O)Nc1ccc(NC(=O)Cc2ccccc2)cn1,-0.4,-18,2.1,0.7,.,-6,.,.,.
Cc1cccc2[nH]c(CCNC(=O)C3CCC(=O)N(CCc4cccc(F)c4)C3)nc12 (configuration not stated),1.9,-12,-0.4,0.65,i,5,-2,0,0.6
Cc1ccc(C)c(C(=O)OCC(=O)NC(=O)NCc2ccccc2)c1,3.7,.,.,.,i,.,5,12,-1.8
COc1ccc(O)c(CN2CCN(CCc3ccccc3)C(CCO)C2)c1 (configuration not stated),0.6,8,-0.4,0.66,.,4,11,3,-1.3
COc1ccccc1CCC(=O)OCC(=O)Nc1ccc2[nH]c(=O)[nH]c2c1,-5.3,-5,-1.5,0.66,i,3,0,-3,0.8
CCOCCCNC(=O)C1c2ccccc2C(=O)N2CCc3ccccc3C12 (configuration not stated),3.9,-15,5.5,0.67,.,7,.,.,.
COc1ccc(N2CCN(Cc3nc4c(c(=O)n(C)c(=O)n4C)n3Cc3cccc(C)c3)CC2)cc1,0.5,57,2.9,0.69,i,-9,-5,-23,7.0
O=C(CSc1nnc2c3c4c(sc3ncn12)CCCC4)NCc1ccco1,0.4,21,0.6,0.75,.,0,.,.,.
COc1ccc(CC(=O)Nc2ccc(S(=O)(=O)N(C)C)cc2)cc1OC,2.5,-11,4.8,0.72,.,4,.,.,.
COCCCNC(=O)c1cc2c(=O)n(C)c3ccccc3c2n1C,0.8,34,0.6,0.77,i,-6,-6,6,2.0
Cc1ccn(S(=O)(=O)c2ccc(C(C)(C)C)cc2)n1,4.0,-3,2.5,0.74,.,-1,.,.,.
O=C(Nc1ccccc1)c1ccc(-c2ccccc2C(F)(F)F)o1,5.3,43,-2.3,0.68,i,-7,-24,-44,-9.1
O=C(c1ccccc1)N1CCc2[nH]nc(-c3ccccc3)c2C1,-6.2,-5,2.6,0.71,i,-2,-16,-17,1.5
CCOC(=O)c1nnsc1NC(C)=O,3.0,-15,2.8,0.71,.,-5,.,.,.
Cc1c(C(=O)N(C)CCOc2ccccc2)oc2c(Cl)cccc12,0.3,-1,2.5,0.66,i,3,-15,-40,-2.6
O=C(NCc1nnc(SCc2ccc(F)cc2)n1-c1ccc(F)cc1)C12CC3CC(CC(C3)C1)C2,0.2,-22,3.0,0.71,i,7,-13,-16,12
Cc1ccc(O)c(C(=O)c2cnn(C(=O)COc3ccc(Cl)cc3)c2)c1,-1.3,-1,-0.5,0.69,.,13,.,.,.
Cc1cc(C(=O)Nc2c(F)cc(F)cc2Br)c(C)o1,5.5,96*,-1.7,0.71,.,7,.,.,.
Cc1ccc([N+](=O)[O-])cc1S(=O)(=O)Nc1ccc(C(=O)NCC2CCCO2)cc1 (configuration not stated),-2.0,0,5.7,0.69,i,4,13,18,-2.0
Cc1ccc(CS(=O)(=O)c2nc3c(c(N(C)C)n2)CCCC3)cc1,-2.1,-2,2.1,0.66,i,73*,-14,-24,-5.9
Cc1cccc(N2C(=O)N3[C@H]4c5ccccc5OC[C@@H]4[C@@H](c4ccccc4)[C@@]3(C)C2=O)c1,2.2,1,26*,.,i,0,7,14,1.7
COc1ccc(NC(=O)C2CCC(CNc3c(N4CCC(C)CC4)c(=O)c3=O)CC2)cc1OC (configuration not stated),-2.4&-1.3,-28,2.3&5.8,0.67&0.76,i,-4&-3,1&-5,9&0,2.3&4.6
O=C(O)CC(NC(=O)Cc1ccccc1)c1ccccc1 (configuration not stated),3.2,-5,2.5,0.7,i,6,8,15,11

# Source: PubChem BioAssay
